Sfp inh – inhibitors of Bacillus subtilis Sfp phosphopantetheinyl transferase | Q9F4F7 | Biochemical Sfp PPTase activity, qHTS | Potency, µM, for the others: max response, negative = inhibition, hits mostly inhibitors | hit rate 3.5% among 310,000 | AID 1490; active = well fitted inhibition curve with a large enough effect; inconclusive = small, poorly fitted or top-dose-only effect, or another doubt; inactive = no such curve, though single readings can be large or run the other way;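 note: the enzyme is Sfp with the accession as filed and its product quenches rhodamine fluorescence; potency is the fitted concentration of half-maximal effect; 0% = enzyme reaction without inhibitor and -100% = no enzyme wells; top concentration of the series not given in the record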
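Buffer: 50 mM Hepes-Na pH 7.6, 10 mM MgCl2, 0.01% Nonidet P-40, 0.01% BSA. Enzyme 15 nM, pre-exposed to compound 15 min; substrates then added and fluorescence change tracked over 30 min.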
ClpP mod – qHTS Assay for Activators of ClpP; hit rate 1.9% among 340,000; purified B. subtilis ClpP, FRET peptide cleavage, 20 min; AID 651965, 2013; Potency, µM (highest dose often 57.5 µM), without a hit: at the highest dose activity change, negative = active; ATP-dependent Clp protease proteolytic subunit (Bacillus subtilis (strain 168)), P80244; active = well fitted falling curve with a large enough effect; inconclusive = small, poorly fitted or top-dose-only effect; inactive = no such curve, though single readings can be large or run the other way; note: potency is the fitted concentration of half-maximal effect; the source files actives as falling curves though it sought activators and does not explain the sign; nearly all actives have a fitted effect of over 65% in size; many hits overshoot -100%
Target sequence (P80244 whole entry, looked up): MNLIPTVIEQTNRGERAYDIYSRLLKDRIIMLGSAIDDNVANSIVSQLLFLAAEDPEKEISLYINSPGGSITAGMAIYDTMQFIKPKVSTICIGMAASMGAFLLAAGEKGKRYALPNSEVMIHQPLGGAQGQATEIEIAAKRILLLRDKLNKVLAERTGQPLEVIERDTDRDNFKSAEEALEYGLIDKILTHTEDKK
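Purified B. subtilis ClpP, 10 microg/mL final in Tris/HCl pH8 with KCl, BSA, glycerol and Tween-20, cleaved an Abz/nitrotyrosine-quenched decapeptide. Fluorescence (ex 320, em 430) was read at 0 and 20 min at room temperature. Delta was normalized to 5.8 microM ADEP and DMSO/no-enzyme controls.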
TRPML1 inh – blocks the human TRPML1 channel; Q9GZU1; TRPML1-inducible cells, Ca2+ dye fluorescence, FDSS; hits give low values; inhibition of EC80 agonist-evoked calcium signal; activity change, negative = inhibition, % (concentration not given with the values); hit rate 0.02% among 390,000; AID 624415; in the data active means activity change below about -50%; inconclusive means about -30% to -50%; inactive means above about -30%;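 note: stimulus is agonist 54-4 at its EC80 concentration; % is set by controls: 0 for no effect and ±100 for the full control effect; compound concentration not given in the record; the text of the record puts the active cut at -80%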
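Calcium fluorescence in TRPML1-DL cells induced overnight with Tet: a 110 s read after compound pin addition, then a 110 s antagonist read after challenge with 54-4 at 4 uM final (EC80).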
PINK1 modulator – changes PINK1 expression; PINK1 immunofluorescence, high-content cytometry, 24 h; Potency, µM (doses to about 76.6 µM), without a hit: at the highest dose activation (PINK1 increase), hits mostly activators; hit rate 0.2% among 410,000; AID 624263; active = well fitted activation curve with a large enough effect; inconclusive = small, poorly fitted or top-dose-only effect; inactive = flat fitted curve, though single readings scatter; cell line not stated here;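 note: potency is the fitted concentration of half-maximal effect; % of control where 0% means no effect; nearly all actives have a fitted effect of over 65% in size; a mitochondrial uncoupler was the plate control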
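PINK1 protein, normally rapidly degraded, was detected by immunofluorescence after 24 hour compound treatment of a stable cell line. Titration data (5 concentrations) came from laser-scanning cytometry, with CCCP-treated wells as controls.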
TRPV1 potentiator – enhances activation of the human vanilloid receptor TRPV1; TRPV1-expressing cells, Fluo-8 calcium influx, capsaicin EC20 potentiation; host cell line not named in the record; control for the full effect not named in the record; Q8NER1; hit rate 0.02% among 320,000; potentiation, % at 8.33 µM; active means potentiation above 80%; inconclusive means 30% to 80%; inactive means below 30%; note: 0% is about no effect
Target sequence (Q8NER1 whole entry, looked up): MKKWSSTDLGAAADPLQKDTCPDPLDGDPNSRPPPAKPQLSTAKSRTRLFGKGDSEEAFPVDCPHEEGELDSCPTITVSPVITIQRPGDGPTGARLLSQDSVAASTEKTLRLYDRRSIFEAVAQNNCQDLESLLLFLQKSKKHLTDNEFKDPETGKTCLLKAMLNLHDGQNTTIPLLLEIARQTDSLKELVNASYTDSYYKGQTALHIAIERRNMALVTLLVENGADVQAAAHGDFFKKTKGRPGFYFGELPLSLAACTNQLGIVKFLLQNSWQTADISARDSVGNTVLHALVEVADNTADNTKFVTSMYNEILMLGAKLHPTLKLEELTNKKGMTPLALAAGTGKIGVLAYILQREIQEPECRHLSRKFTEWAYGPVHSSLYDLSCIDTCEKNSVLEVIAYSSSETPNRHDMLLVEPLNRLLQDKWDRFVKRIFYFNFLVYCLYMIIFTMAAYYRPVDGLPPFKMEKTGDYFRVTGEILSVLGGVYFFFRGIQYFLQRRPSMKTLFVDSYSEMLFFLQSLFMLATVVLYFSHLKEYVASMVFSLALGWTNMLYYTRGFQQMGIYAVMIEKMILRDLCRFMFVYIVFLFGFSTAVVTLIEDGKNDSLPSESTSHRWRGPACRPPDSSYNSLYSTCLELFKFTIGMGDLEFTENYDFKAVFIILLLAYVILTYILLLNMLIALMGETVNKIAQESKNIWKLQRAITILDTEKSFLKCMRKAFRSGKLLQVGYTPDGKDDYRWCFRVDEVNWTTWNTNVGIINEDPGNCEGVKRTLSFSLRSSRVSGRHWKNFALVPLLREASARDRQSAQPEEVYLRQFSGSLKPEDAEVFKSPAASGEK
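TRPV1-expressing cells were cultured overnight at 35.5C and loaded with Fluo-8 calcium dye for 40 to 90 min at room temperature. After a 10 s baseline, compound was added and calcium influx was read kinetically for 3 min (ex 480/em 520 nm).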
Menin MLL FP FL – inhibitors of human menin-MLL interaction, wild-type MLL peptide; Fluorescence polarization, fluorescein-MLL peptide displacement from menin; AID 1766; FP activity change, % at 61.4 µM; 290,000 tested, under 10 active; inconclusive = falling polarisation curve, or a change in total fluorescence; inactive = total fluorescence flat and polarisation flat or rising; no compound was filed as active; the % refers to the polarisation; negative = inhibition;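 note: % of control where 0% means no effect; inhibitors lower the polarisation; unlabelled MLL peptide was the positive control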
TRPML1 ag – activates the human TRPML1 channel | TRPML1-expressing cells, Ca2+ dye fluorescence, FDSS; host cell line not named in the record; reference of the full effect not given here | activation, % (test concentration not listed) | hit rate 0.12% among 410,000 | AID 624414; in the data active = activation above about 50%; inconclusive = about 30% to 50%; inactive = below about 30%; note: 0% is about no effect; the text of the record puts the active cut at 80%
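Tetracycline-induced TRPML1-DL cells are seeded and incubated overnight before loading with a no-wash Ca2+ dye and quencher. Agonist activity is taken from the 110 s fluorescence read following compound pin-transfer on an FDSS, before EC80 54-4 challenge.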
Starred values were filed as active, the others as inactive; ? = inconclusive; / = not tested or not shown; [ ] = dose if it differs, or a comment. Compounds were not picked by outcome, and some 4.4% of all compounds hit somewhere here.

structure,Sfp inh,ClpP mod,TRPML1 inh,PINK1 modulator,TRPV1 potentiator,Menin MLL FP FL,TRPML1 ag
O=c1[nH]c(N/N=C/c2cc3c(cc2[N+](=O)[O-])OCO3)nc2ccccc12,?,-3.0%,10,19%,-1,-6.8,-0.7
C/C=C/Cn1c(Br)nc2c1c(=O)n(C)c(=O)n2C,7%,-0.4%,11,-1.1%[38.3 µM],0,1.5,0.3
COc1cccc(CN(C)CC(=O)Nc2cccc(S(=O)(=O)N(C)c3ccccc3)c2)c1OC,/,0.7%,-4,1.1%,/,/,3.3
Cc1cc(N/C=C/C(=O)c2cccs2)ccc1F,-4%,-0.1%,-9,1.7%,-9,8.7,0.1
FC(F)(F)c1ccccc1NC(=S)NN1CCOCC1,24%,0.4%,5,/,-4,0.2,-0.4
O=C(Nc1cc(N2CCCCC2)ncn1)c1ccccc1,6%,/,-4,1.3%,7,1.8,1.1
Cc1cc(C)c(NC(=O)COC(=O)Cn2nc(-c3ccccc3)oc2=O)c(C)c1,/,22µM*,5,2.9%,/,/,1.8
COCCCN1CC(=O)N2C(c3ccc(C)cc3)c3[nH]c4ccccc4c3C[C@H]2C1=O (stereo partly drawn),11%,0.1%,6,4.1%,4,0.0,2.2
O=S(=O)(c1ccc(Cl)cc1)N1CCC(c2ccncc2)CC1,/,-1.3%,-9,1.3%,/,/,0.1
CCN(CC)C(=O)CSc1nc2ccccc2c(=O)n1CC,8%,-14%,-4,-1.5%,-2,2.7,0.3
CCN(Cc1ccccc1)c1cc2c(c3c1ccn3C)C1CCC2C1 (stereo not drawn),/,-29%,-18,5.0%,/,/,1.9
CCNC(=O)c1ccc(-n2nc(C)cc2-c2ccccc2)cc1,18%,-10%,28,1.7%,-13,9.2,0.2
CN(C)CC(O)CN(c1ccccc1)c1ccccc1 (stereo not drawn),-23%,/,-1,-1.1%,-1,2.4,0.3
O=C(Nc1ccc(Br)cc1)c1cc(-c2cccs2)nc2ccccc12,/,38%,17,13%,/,/,0.0
Fc1cccc(CN2CCN(Cc3nc(-c4cnccn4)no3)CC2)c1,8%,1.1%,2,-0.1%,-6,1.8,0.0
CCOc1ccc(C(=O)NCc2ccccc2OC)cc1,13%,2.2%,0,?,3,-5.8,-0.5
Cc1cc(C)n(C(=O)CCCCCC(=O)n2nc(C)cc2C)n1,-10%,0.4%,9,0.1%,2,0.6,-0.8
CCOC(=O)c1ccc(NC(=O)CCc2nc(-c3ccc(Cl)cc3)no2)cc1,89µM*,3.7%,-9,4.2%,4,1.5,4.7
C[C@@H]1CN([C@@H](C)CO)C(=O)CCCn2nncc2CO[C@@H]1CN(C)C(=O)Nc1ccnc(N2CCOCC2)c1,/,-2.8%,0,1.3%,/,/,-0.3
CCOC(=O)COc1ccc2c(c1)c(C(C)=O)c(C)n2-c1ccccc1,3%,0.6%,6,1.7%,9,2.8,0.2
Cc1ccc(-c2c(C(=O)N/N=C/C3CCCCC3)nnn2-c2nonc2N)cc1,15%,1.0%,12,-1.3%,11,5.0,-0.5
COc1ccc(CNc2ncnc3ccc(-c4ccccc4OC)cc23)c(OC)c1,-10%,/,/,0.2%,/,0.0,/
O=C(O)C1CC(=O)N(c2ccc(OCc3ccccc3)cc2)C1 (stereo not drawn),11%,1.2%,-7,?,-5,3.2,-0.3
CCc1cccc(C)c1NC(=O)CN1C(=O)c2c(c3ccccc3n2C)C1c1ccc(OC)cc1 (stereo not drawn),/,25µM*,28,0.7%,/,/,2.2
CCOc1ccc(C(=O)c2cn(CC(=O)Nc3ccc4c(c3)OCO4)c3ccc(OC)cc3c2=O)cc1,/,-0.1%,-3,5.2%,/,/,-0.7
COc1cc(C(O)P(=O)(OC2CCCCC2)c2ccc(N(C)C)cc2)cc(OC)c1OC (stereo not drawn),7%,-0.6%,-5,2.8%,8,0.3,-0.3
O=c1[nH]c(NCCO)c(N=Cc2ccccc2)c(=O)[nH]1,/,/,-5,1.2%,/,/,1.3
O=C(Nc1nnc(S(=O)(=O)N2CCN(c3ccc(F)cc3)CC2)s1)c1ccco1,-16%,-4.5%,3,0.7%,0,/,-1.0
O=[N+]([O-])c1ccc2nc(CN3CCCCC3)[nH]c2c1,7%,/,-9,-1.4%,-9,2.2,0.2
CC1CCN(C(=O)CN2C(=O)NC(c3ccccc3)(c3ccccc3)C2=O)CC1,/,1.6%,-7,-0.1%,-3,/,0.5
COc1cc2ccccc2cc1C(=O)Nc1ccccc1Cl,-6%,?,/,?,3,-10,/
Cc1ccc(NC(=O)CCn2c(=O)[nH]c3ccsc3c2=O)cc1,5%,/,2,1.2%,-10,8.7,-0.1
CN1CN(C)c2cccc3cccc1c23,-1%,?,-16,1.2%,1,-0.3,-0.4
S=C(c1ccc2c(c1)OCO2)N1CCCC1,10%,-2.6%,-8,0.0%,-33,-1.6,-0.8
COc1ccc(C#Cc2c(-c3ccsc3)oc3ccc(-c4cc(OC)c(OC)c(OC)c4)cc23)cc1,/,45%,-7,1.9%,/,/,-0.4
CN(C(=O)CN1C(=O)c2ccccc2S1(=O)=O)c1ccccc1C(=O)O,12%,-1.1%,-13,2.4%[38.3 µM],-12,-2.5,-0.4

Copied from the list:
For ClpP mod, COc1cc(C(O)P(=O)(OC2CCCCC2)c2ccc(N(C)C)cc2)cc(OC)c1OC (stereo not drawn) has -0.6%
For Menin MLL FP FL, S=C(c1ccc2c(c1)OCO2)N1CCCC1 has -1.6

New compounds follow
structure,Sfp inh,ClpP mod,TRPML1 inh,PINK1 modulator,TRPV1 potentiator,Menin MLL FP FL,TRPML1 ag
O=C(NC(NC1CCS(=O)(=O)C1)C(=O)c1ccccc1)c1ccc(Cl)cc1 (stereo not drawn),-3%,-1.0%,-19,/,-1,0.0,0.0
Cc1c(CNC(C)c2ccccc2)c(C(=O)O)c(C)n1Cc1c(F)cccc1Cl (stereo not drawn),/,-0.8%,16,-0.1%,/,/,-0.5
CCn1c(SCC(=O)Nc2ccc(Cl)cc2)nnc1C1CC1,10%,-0.8%,10,-0.2%,15,8.8,0.9
N#CCCn1cc(/C=N/O)c(-c2ccc(-c3ccccc3)cc2)n1,0%,-6.8%,-1,1.4%,?,1.7,3.0
O=C1C2C3C=CC(CO)(O3)C2C(=O)N1c1ccccc1-c1ccccc1 (stereo not drawn),1.1µM*,-0.2%,0,/,27,2.0,-0.3
Cn1c(N)c(C(=O)COC(=O)COc2ccc(Cl)cc2)c(=O)n(C)c1=O,/,0.0%,-1,-1.2%,8,/,-0.4
O=C(CSc1nc(Nc2ccccc2)nc(N2CCOCC2)n1)Nc1ccc(Br)cc1F,17%,29%,3,4.1%,14,/,0.1
C#CCOCCOCCOCCNc1nc(N2CCN(C(=O)[C@H](CCC(=O)O)n3cc(C(N)CC(C)C)nn3)CC2)nc(N2CCN(C(=O)[C@H](Cc3ccc(O)cc3)n3cc(C(N)[C@H](C)CC)nn3)CC2)n1 (stereo partly drawn),13%,/,/,/,25,-2.3,/
CCSCc1nc(N)nc(NCCc2ccccc2)n1,15%,0.4%,/,-0.2%,10,-6.6,/
COc1ccc(CC(=O)Nc2ccc(N3CCOCC3)cc2)cc1S(=O)(=O)N1CCOCC1,-11%,-2.5%,/,2.1%,-2,0.8,/
CC(=O)C1=C(O)C(=O)N(c2ccc(Br)cn2)C1c1ccccc1[N+](=O)[O-] (stereo not drawn),-27%,/,6,1.8%,-4,-10,-0.3
COc1ccc(C)cc1NC(=S)N1CCN(c2ccccn2)CC1,?,-6.8%,-3,2.6%,-5,2.9,1.2
Cn1c(=O)c2c(SCC(=O)N3CCOCC3)nc(C3CC3)nc2n(C)c1=O,-9%,-0.7%,-6,1.0%,4,1.3,-0.1
CCn1cc(C(=O)Nc2ccccc2)c(=O)c2ccc(C)nc21,9%,/,/,/,2,-1.2,/
CC1CCC2(CC1)NC(=O)N(CC(=O)c1cn(CCC#N)c3ccccc13)C2=O (stereo not drawn),13%,-1.2%,-6,1.3%,-11,2.4,-0.7
COc1cccc(NC(=O)Cc2ccccc2)c1,19%,0.3%,-2,1.0%,-20,-1.9,-0.2
Cc1cc(C)c(C)c(S(=O)(=O)N2CCN(C)CC2)c1C,6%,/,-5,2.6%,1,1.1,-0.1
C=CCOc1ccc(/C=C/C(=O)OCC(=O)NNC(=O)c2ccccc2F)cc1,/,1.6%,-8,-1.1%,/,/,0.0
N#Cc1cc(-c2ccccc2)oc1NC(=O)c1ccccc1,9%,2.7%,6,11%,0,8.8,0.0
CCOC(=O)c1ccc(OCC2c3cc(OC)c(OC)cc3CCN2C(=O)c2ccc(S(=O)(=O)N3CCCC3)cc2)cc1 (stereo not drawn),/,-2.6%,7,-4.0%,/,/,1.9
COc1ccc(-n2nc(C(=O)Nc3ccc(C)cn3)c3c4ccccc4n(C)c3c2=O)cc1,/,-11%,-10,-0.1%,/,/,1.3
CCCCOc1ccc(/C=C/C2=CC(C)(C)NC(=S)N2)cc1OCC,14%,-22%,-5,17%,?,-0.3,1.9
Cn1ccnc1C(=O)c1ccc(S(=O)(=O)N2CCCC2)cc1,16%,/,13,0.0%,-1,3.5,-0.1
Cc1c(NC(=O)c2cccs2)cccc1-c1nc2ccccc2s1,?,-0.6%,-8,5.0%,5,7.0,5.3
CC(=O)Nc1ccc(S(=O)(=O)NCCC(=O)N2CCN(c3ccccc3Cl)CC2)cc1,/,0.0%,21,0.8%,/,/,-0.7
Nc1nc(N2CCN(c3ccccn3)CC2)nc2ccccc12,6%,-12%,-1,4.6%,-15,-0.4,-0.4
CCC(C)(C)c1nnc(NC(=O)C2CC(=O)N(CCc3ccc(F)cc3)C2)s1 (stereo not drawn),-6%,/,15,0.6%,3,3.0,0.0
CN1CCC(OC(=O)Cc2ccc(Cl)cc2)CC1,17%,-2.9%,21,0.0%,29,-1.3,0.2
